Bioassay records: PubChem BioAssay, National Center for Advancing Translational Sciences (NCATS)
ClpP mod = qHTS Assay for Activators of ClpP | Potency, µM (highest dose often 57.5 µM), inactives show top-dose activity change, negative = active | AID 651965, 2013 | ATP-dependent Clp protease proteolytic subunit (Bacillus subtilis (strain 168)), P80244 | 340,000 compounds, 1.9% hits | purified B. subtilis ClpP, FRET peptide cleavage, 20 min; active = well fitted falling curve with a large enough effect; inconclusive = small, poorly fitted or top-dose-only effect; inactive = no such curve, though single readings can be large or run the other way; further: potency means the concentration at half of the fitted maximal effect; the source files actives as falling curves though it sought activators and does not explain the sign; nearly all actives have a fitted effect of over 65% in size; many hits overshoot -100%
Target sequence (P80244 whole entry, looked up): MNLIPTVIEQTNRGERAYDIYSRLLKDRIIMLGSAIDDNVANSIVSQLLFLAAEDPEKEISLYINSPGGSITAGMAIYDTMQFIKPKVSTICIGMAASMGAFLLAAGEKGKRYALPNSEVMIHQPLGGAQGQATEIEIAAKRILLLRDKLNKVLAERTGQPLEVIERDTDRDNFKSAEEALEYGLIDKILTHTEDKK
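Buffer: 100 mM Tris/HCl pH8, 100 mM KCl, 0.05% low protease BSA, 2.5% glycerol, 0.01% Tween-20. ClpP 10 microg/mL final; 20 min RT; delta FRET normalized to ADEP and DMSO controls.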
TRPML1 ag = human mucolipin-1 channel agonism; Q9GZU1; TRPML1-expressing cells, Ca2+ dye fluorescence, FDSS; host cell line not named in the record; reference of the full effect not given here; activation, % (concentration not given with the values); 410,000 compounds, 0.12% hits; AID 624414; in the data active = activation above about 50%; inconclusive = about 30% to 50%; inactive = below about 30%; further: 0% is about no effect; the text of the record puts the active cut at 80%
Target sequence (Q9GZU1 whole entry, looked up): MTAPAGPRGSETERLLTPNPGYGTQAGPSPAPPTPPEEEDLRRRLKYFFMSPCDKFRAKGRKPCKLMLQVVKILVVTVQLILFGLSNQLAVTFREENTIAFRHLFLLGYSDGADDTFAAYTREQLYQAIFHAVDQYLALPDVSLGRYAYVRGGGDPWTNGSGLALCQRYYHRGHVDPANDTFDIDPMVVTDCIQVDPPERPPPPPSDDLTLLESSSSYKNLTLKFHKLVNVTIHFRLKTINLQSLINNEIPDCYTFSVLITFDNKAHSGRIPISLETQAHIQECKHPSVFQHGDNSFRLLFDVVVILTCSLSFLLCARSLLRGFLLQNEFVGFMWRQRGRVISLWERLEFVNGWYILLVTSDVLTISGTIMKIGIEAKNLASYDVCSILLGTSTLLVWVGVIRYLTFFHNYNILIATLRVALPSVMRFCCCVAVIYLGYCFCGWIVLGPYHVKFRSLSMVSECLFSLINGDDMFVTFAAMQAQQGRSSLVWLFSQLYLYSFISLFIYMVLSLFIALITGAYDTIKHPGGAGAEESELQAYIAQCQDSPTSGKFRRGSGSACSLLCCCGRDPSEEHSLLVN
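Kinetic FDSS Ca2+ read in Tet-induced TRPML1-DL cells (ABD Ca8 dye plus quencher, 45-90 min RT loading): baseline, then compound, then 110 s agonist window; EC80 agonist 54-4 at 4uM final added afterwards for a 110 s antagonist window.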
Menin MLL FP FL = menin-MLL binding inhibition, fluorescein peptide; Fluorescence polarization, fluorescein-MLL peptide displacement from menin; FP activity change, % at 61.4 µM; 290,000 tested, under 10 active; inconclusive = falling polarisation curve, or a change in total fluorescence; inactive = total fluorescence flat and polarisation flat or rising; no compound was filed as active; the % refers to the polarisation; negative = inhibition;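 further: % of control where 0% means no effect; inhibitors lower the polarisation; unlabelled MLL peptide was the positive control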
TRPML1 inh = human mucolipin-1 channel inhibition; TRPML1-inducible cells, Ca2+ dye fluorescence, FDSS; hits give low values; inhibition of EC80 agonist-evoked calcium signal; Q9GZU1; activity change, negative = inhibition, % (no concentration beside the values); AID 624415; 390,000 compounds, 0.02% hits; in the data active means activity change below about -50%; inconclusive means about -30% to -50%; inactive means above about -30%;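 further: stimulus is agonist 54-4 at its EC80 concentration; on the % scale 0 is the no-effect control and ±100 the full control effect; compound concentration not given in the record; the text of the record puts the active cut at -80%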
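Calcium fluorescence in TRPML1-DL cells induced overnight with Tet: a 110 s read after compound pin addition, then a 110 s antagonist read after challenge with 54-4 at 4 uM final (EC80).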
gsp antagonist = antagonizes gsp, the McCune-Albright syndrome mutation; gsp-mutant cells, cAMP HTRF, 30 min; control for the full effect not named in the record; Potency, µM (doses to about 76.9 µM), for the others: at the highest dose activity change, negative = inhibition, usual class: inhibitors; AID 624288; 340,000 compounds, 0.4% hits; active = falling curve of any shape with a large fitted effect; inconclusive = falling curve, mostly with a smaller effect; inactive = flat or rising curve; cell line not stated here;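 further: intracellular cAMP measured with PDE inhibitor Ro 20-1724 present during compound exposure; potency means the concentration at half of the fitted maximal effect; on the % scale 0 is the no-effect control and ±100 the full control effect; nearly all actives have a fitted effect of over 65% in size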
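HTRF cAMP measurement after 30 min RT detection following 30 min, 37C compound treatment alongside […] (added as 300 uM solution) in G418-selected cells seeded at 2000/well and grown 16–24 h.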
gsp agonist = agonists of gsp mutant (McCune-Albright syndrome). gsp mutant cells, cAMP HTRF, 30 min; control for the full effect not named in the record. Potency, µM (top dose mostly 76.9 µM), without a hit: at the top dose activation (cAMP increase), hits mostly activators. 340,000 compounds, 0.13% hits; active = well fitted activation curve with a large enough effect; inconclusive = small, poorly fitted or top-dose-only effect, or another doubt; inactive = no such curve, though single readings can be large or run the other way; cell line not stated here;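 further: phosphodiesterase inhibitor Ro 20-1724 added with compounds to block cAMP breakdown; potency means the concentration at half of the fitted maximal effect; nearly all actives have a fitted effect of over 60% in size; about a fifth of the inactives were tested at one dose only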
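Cells stably selected in G418 were plated at 2000/well, grown 16-24 hr, then given compounds in DMSO with the PDE inhibitor […] (300 uM solution added) for 30 min at 37C; cAMP was read by HTRF.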
The depositor's hits bear a star; ? = inconclusive; nt = not tested or not shown; & = joins results of further samples; [ ] = another dose, or the depositor's remark. No enrichment for hits; about 2.1% have a hit in one of these screens.

SMILES	ClpP mod	TRPML1 ag	Menin MLL FP FL	TRPML1 inh	gsp antagonist	gsp agonist
CCCCNC(=O)c1onc(CSc2cccc(OC)c2)c1C(=O)NCCCC	0.9%	3.1	nt	11	-21%	-13%
CCC(=O)NC(c1cccs1)c1cc(Cl)c2cccnc2c1O (configuration not stated)	-0.2%	3.1	-0.9	6	-5%	16%
CC(C)(C)N1NC(=O)Nc2ccccc2C1=O	0.1%	-0.4	4.1	-5	3%	-8%
O=C(Nc1ccccn1)Nc1cccs1	3.0%	-0.5	1.4	12	3%	-4%
CC(C)(C)C1CCc2onc(C(=O)NC3CCCC3)c2C1 (configuration not stated)	0.6%	2.5	0.8	5	-27%	-25%
CCOc1ccc(OCC)c(NC(=O)Nc2ccc3c(c2)N(C)C(=O)CS3)c1	-1.0%	0.4	1.5	33	?	-26%
O=C([C@@H]1Cc2ccccc2CN1)N1CCN(Cc2ccccc2)CC1	-3.2%	nt	-5.9	nt	20%	-12%
CCOc1ccc(C(=O)NCc2ccc3c(c2)OCO3)cc1	nt	2.1	1.9	-4	8%	-72%[inhibitor]
CCOc1ccccc1NC(=O)COC(=O)CC(C)(C)CC1=NS(=O)(=O)c2ccccc2N1	0.4%&0.6%	-0.6&-0.7	nt	2&3	-9%	?
FC(F)(F)c1ccc(/C=N/NC(=S)NC2CCCCC2)cc1	-1.2%	2.9	-5.3	-3	5%	10%[15.4 µM]
CC1(C)CC(=O)c2c(Cc3ccccc3)noc2C1	-1.1%	-1.2	3.2	-6	-3%	-6%[15.4 µM]
Cc1ccc(-n2nc3c(Cl)nnc(C)c3c2C)cc1	?	2.6	5.9	1	7%	?
CC(C)=NOc1nc(N(C)C)nc(N(C)C)n1	-1.7%	0.9	4.0	-4	15%	-22%
COCCNC(=S)N1CCN(S(=O)(=O)c2ccc(Cl)s2)CC1	1.1%	0.7	nt	59	-2%	?
CC(C)c1ccc(NC(=O)CSC2=Nc3ccccc3C3=NC(CC(=O)NCc4cccs4)C(=O)N23)cc1 (configuration not stated)	-0.9%	1.2	nt	14	nt	nt
c1ccc(-c2cc(N3CCCCCC3)n[nH]2)cc1	-21%	-0.2	9.0	-7	-15%	14%
Cc1ccc(-c2nc(S(=O)(=O)c3ccc(C)cc3)c(SCC(N)=O)o2)cc1	nt	2.0	0.2	0	-3%	-42%[inhibitor]
O=C(COc1ccccc1)N1CCN(C(=O)c2ccc([N+](=O)[O-])cc2)CC1	-0.6%	1.7	3.3	-13	-6%	3%
CC(c1ccc(F)cc1)n1c(-c2ccc3ccccc3n2)n[nH]c1=S (configuration not stated)	-1.5%	-0.3	3.4	3	-21%	-52%[inhibitor]
COc1ccccc1Cc1noc(C(C)(C)NC(=O)c2ccccc2)n1	-2.6%	-0.5	0.3	-2	-3%	1%
Clc1ccc(OCCCCN2CCc3ccccc3C2)cc1	-2.6%	4.2	-2.4	62	6%	-51%[inhibitor]
Cc1ccc(C)c(NC(=O)C2CCCN2C(=O)OC(C)(C)C)c1 (configuration not stated)	?	0.2	0.1	-17	9%	-2%
O=C(CNc1ccccc1F)Nc1cc(S(=O)(=O)N2CCCCC2)ccc1Cl	0.4%	0.4	nt	6	-21%	?
COc1cccc(C(=O)NNC(=O)c2ccc3ccccc3c2O)c1	-3.2%	-0.6	nt	-9	-11%	12%
COc1ccccc1NC(=O)COC(=O)c1ccc2c(c1)OCCO2	-3.2%	0.8	nt	1	26%	19%
CC(C)c1nc2sc3c(c2c(=O)n1N)CC(C)(C)OC3	nt	-0.8	-0.3	-19	-8%	6%
O=[N+]([O-])c1c(C(Cl)Cl)nn(-c2ccc(Cl)cc2)c1N1CCCCC1	-2.8%	0.3	-0.1	-1	-7%	14%
c1cc(-c2nnc3n2CCC3)[nH]n1	-1.5%	0.9	4.2	9	3%	32%
CCc1ccc(S(=O)(=O)c2nnn3c2nc(N(CC)Cc2ccccc2)c2cc(Cl)ccc23)cc1	?	2.0	nt	-7	nt	nt
CCC/C(=N\NC(=O)c1ccc(OC)c(OC)c1)c1ccccc1	1.5%	-1.0	-3.1	9	0%	-2%
COCC(=O)NCCc1nc2ccccc2[nH]1	0.6%	0.1	3.7	-9	11%	-30%[inhibitor]
CCn1cc(C(=O)N2CCCC2)c(=O)c2cc(S(=O)(=O)N3CC(C)CC(C)C3)ccc21 (configuration not stated)	nt	0.0	-4.1	-9	4%	14%
CC(C)c1ccccc1NC(=O)COC(=O)C1(C)CC1(Cl)Cl (configuration not stated)	0.4%	-0.2	-0.5	-5	5%	?
CSc1ccccc1C(=O)C1CCCN(S(=O)(=O)N(C)C)C1 (configuration not stated)	-3.2%	0.6	-3.7	12	-1%	18%
N/C(=N\OC(=O)Cc1cccs1)c1ccccc1	1.9%	0.3	4.7	-11	10%	?
NC(=S)NNC(=S)Nc1ccccc1	nt	0.9	5.4	10	-15%	16%[15.4 µM]
O=C(c1ccc(Cl)cc1)c1c[nH]c(C(=O)NNc2ccccc2)c1	nt	0.9	1.3	-13	-2%	-15%[15.4 µM]
COc1ccc(S(=O)(=O)c2cn(Cc3ccccc3)c3ccc(OC)cc3c2=O)cc1	3.8%	-1.2	nt	-15	nt	nt
NC(=O)c1ccc(Cl)c2ccccc12	nt	1.2	2.9	10	3%	?
COc1ccccc1C(=O)N(c1ccc(C)cc1)S(=O)(=O)c1ccc(Cl)cc1	-0.2%	0.1	nt	?	nt	nt
Cc1cnc(C(=O)OC(C(=O)Nc2cc(C(F)(F)F)ccc2Cl)c2ccccc2)cn1 (configuration not stated)	-1.4%	-0.1	-2.4	-8	-3%	1%[15.4 µM]
Cc1cc(C)n(C(=O)c2ccc(C)c(S(=O)(=O)N3CCOCC3)c2)n1	-0.9%	1.1	-3.1	9	1%	10%
O=C1CCC(c2ccccc2)c2ccccc21 (configuration not stated)	0.2%	3.9	nt	3	-8%	-29%
Cc1cccc(OCC(=O)Nc2ccc(N3CCN(S(C)(=O)=O)CC3)cc2)c1C	-1.0%	1.0	-0.1	-10	4%	-31%[inhibitor]
COc1ccccc1CNC(=O)CCn1c(=O)[nH]c2ccsc2c1=O	-0.5%	0.9	0.5	5	-15%	-20%
NC(=O)C1CCN(C(=O)c2cc(-c3ccccc3Cl)nc3ccccc23)CC1	1.6%	0.7	nt	-2	-6%	-2%[15.4 µM]
CCN1C(=O)c2cccc3c(S(=O)(=O)NCC4CCCO4)ccc1c23 (configuration not stated)	-12%	0.4	2.7	20	12%	?
NC(=O)COC(=O)c1cc(=O)[nH]c2ccccc12	-25%	nt	-2.4	nt	11%	?
O=C(CCCCC(=O)OCC1COCO1)OCC1COCO1 (configuration not stated)	-0.4%	0.4	nt	17	-2%	-22%
CCOC(=O)C1=CCN(S(=O)(=O)c2ccccc2C)C1c1cccc(Br)c1 (configuration not stated)	0.9%	4.8	nt	68	nt	nt
CCc1nc2ccc(C(=O)N(C)Cc3ccco3)cn2c1N(CC)C(=O)NCCc1ccccc1	1.0%	-0.4	nt	-10	nt	nt
O=C(COC(=O)c1ccc2c(c1)OCCO2)NCCc1ccc(F)cc1	-5.5%	1.1	nt	13	9%	14%
COC(=O)c1ccccc1NC(=O)c1nc(S(=O)(=O)Cc2ccccc2)ncc1Cl	2.0%	-0.4	nt	16	-28%	-70%[inhibitor]
CN(C)C(=O)N1CCC(C(=O)NCc2ccccc2)CC1	0.2%	0.4	3.3	-3	-2%	-45%[inhibitor]
CC(C(=O)NCCCN1CCOCC1)n1cccc1C(=O)c1ccccc1 (configuration not stated)	-0.7%	0.8	1.9	23	7%	-28%
COc1ccc(S(=O)(=O)N2CCC(C(=O)NCc3ccccn3)CC2)cc1Cl	0.5%	0.7	4.3	2	-10%	4%
CN1CCN(c2oc(-c3ccccc3)nc2S(=O)(=O)c2ccc(Br)cc2)CC1	-0.9%	-0.1	nt	2	-18%	?
Cc1cccc(NC(=O)N2CCC(N3CCN(Cc4ccccc4)C(=O)C3=O)CC2)c1C	-3.4%	1.1	nt	-2	nt	nt
O=C(O)CSc1nc2ccccc2n1Cc1ccccc1	-1.8%	1.1	0.1	-13	-8%	3%[15.4 µM]
Clc1ccc(Cc2nnc(-c3ccccc3Br)o2)cc1	-1.0%	-0.2	6.5	-11	2%	-24%

Next records.
SMILES	ClpP mod	TRPML1 ag	Menin MLL FP FL	TRPML1 inh	gsp antagonist	gsp agonist
N/C(=N\OC(=O)CCCc1ccccc1)c1ccc(Br)cc1	-0.8%	0.2	nt	0	3%	-27%
CCCCNC(=O)CCn1c(=O)c2cccn2c2cccnc21	-29%	-0.2	nt	-8	nt	nt
O=C(COc1ccc(Br)cc1)OCCN1CCCCC1	-1.1%	-0.1	-0.8	36	9%	-4%[15.4 µM]
O=C(Nc1nnc(C2=COCCO2)o1)c1ccc(S(=O)(=O)N2CCOCC2)cc1	-2.0%	0.0	1.8	-4	2%	-18%
CC1CN(c2cc(=O)n(-c3ccccc3)c(=O)[nH]2)CC(C)O1 (configuration not stated)	0.7%	0.3	5.0	-6	7%	-29%
CCC1(c2ccccc2)NC(=O)N(CC(=O)Nc2ccccc2N2CCCC2)C1=O (configuration not stated)	-2.0%	4.4	nt	1	-2%	6%[15.4 µM]
CCCCN1C(=O)C(CC(=O)NCCCCc2ccccc2)CC(C(=O)N2CCOCC2)=C1C (configuration not stated)	0.4%	-0.4	nt	-2	nt	?
O=C(/C=C/c1c(F)cccc1Cl)Nc1nn[nH]n1	nt	1.1	5.2	-16	1%	0%[15.4 µM]
CCCc1nc2ccc(Br)cn2c1Cc1ccccc1	-17%	1.4	nt	17	nt	nt

Taken from the entries so far (6 entries):
SMILES	ClpP mod	TRPML1 ag	Menin MLL FP FL	TRPML1 inh	gsp antagonist	gsp agonist
O=C(COc1ccc(Br)cc1)OCCN1CCCCC1	-1.1%	-0.1	-0.8	36	9%	-4%[15.4 µM]
O=C(Nc1nnc(C2=COCCO2)o1)c1ccc(S(=O)(=O)N2CCOCC2)cc1	-2.0%	0.0	1.8	-4	2%	-18%
CC1CN(c2cc(=O)n(-c3ccccc3)c(=O)[nH]2)CC(C)O1 (configuration not stated)	0.7%	0.3	5.0	-6	7%	-29%
CCC1(c2ccccc2)NC(=O)N(CC(=O)Nc2ccccc2N2CCCC2)C1=O (configuration not stated)	-2.0%	4.4	nt	1	-2%	6%[15.4 µM]
CCCCN1C(=O)C(CC(=O)NCCCCc2ccccc2)CC(C(=O)N2CCOCC2)=C1C (configuration not stated)	0.4%	-0.4	nt	-2	nt	?
O=C(/C=C/c1c(F)cccc1Cl)Nc1nn[nH]n1	nt	1.1	5.2	-16	1%	0%[15.4 µM]
